# A488 autofl = A488 region autofluorescence | max dye equivalency, M | AID 591 | compound autofluorescence, A488 spectral region, dye equivalency; stronger effect = higher value | 59,000 tested, 0.1% active; active = above 10 nM dye equivalent; inconclusive = 1 to 10 nM; inactive = 1 nM or less; about half of its hits are not listed in these tables;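 further: highest value over a series up to 38 µM; compound alone in buffer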
#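 Spectroscopic profiling in the A488 region: compounds in pH 8.0 Tris (100 mM), 15 min RT, CCD imaging with 480 nm excitation and 540 nm emission; responses normalized against A488 dye standards.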
# AID923 = qHTS Assay for Allosteric/Competitive Inhibitors of Caspase-1: Spectroscopic Profiling in AFC Spectral Region | compound fluorescence, AFC spectral region (405/520 nm); almost no hit is shown here | 75,000 tested, 1.1% active | Potency, µM (doses to about 57.5 µM), without a hit: top-dose fluorescence increase, actives largely listed as activators | AID 923, 2007; active means well fitted activation curve with a large enough effect; inconclusive means small, poorly fitted or top-dose-only effect;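 further: potency means the concentration at half of the fitted maximal effect; 0% is about no effect; scaled to a free AFC standard on each plate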
#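 Baseline compound fluorescence (AFC region, 405 nm ex/520 nm em) taken from the intercept of kinetic reads with 50 nM caspase-1 and 5 uM Ac-WEHD-AFC; normalized to an on-plate AFC standard curve; compounds titrated up to 57 uM.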
# Resorufin autofl = resorufin region autofluorescence; max dye-equivalent concentration, M; 59,000 tested, 0.04% active; Compound fluorescence, resorufin region 547/598 nm, buffer; stronger effect = higher value; active = above 10 nM dye equivalent; inconclusive = 1 to 10 nM; inactive = 1 nM or less; a few of its hits are not listed in these tables; further: highest value over a series up to 38 µM
#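 Intrinsic fluorescence profiled in the resorufin window (ex 547 nm, em 598 nm) after 15 min at room temperature in pH 8.0 Tris buffer (100 mM); responses normalized against a six-point resorufin standard series as dye-equivalent concentration.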
# TSHR ag = activates the human thyroid stimulating hormone receptor; 73,000 tested, 0.48% active; P16473; Potency, µM (series often up to 57.1 µM), for the others: at the top dose activation, hits mostly activators; AID 926; HEK293-CNG-TSHR cells (CNG channel as cAMP sensor), membrane potential dye, cAMP; active = well fitted activation curve of enough size with the parental cells flat; inconclusive = any curve in the parental cells; inactive = parental cells flat and receptor cells flat or falling; further: potency means the concentration at half of the fitted maximal effect; % of control where 0% means no effect; weak receptor curves with flat parental cells got no call and are not listed
# Target sequence (P16473 whole entry, looked up): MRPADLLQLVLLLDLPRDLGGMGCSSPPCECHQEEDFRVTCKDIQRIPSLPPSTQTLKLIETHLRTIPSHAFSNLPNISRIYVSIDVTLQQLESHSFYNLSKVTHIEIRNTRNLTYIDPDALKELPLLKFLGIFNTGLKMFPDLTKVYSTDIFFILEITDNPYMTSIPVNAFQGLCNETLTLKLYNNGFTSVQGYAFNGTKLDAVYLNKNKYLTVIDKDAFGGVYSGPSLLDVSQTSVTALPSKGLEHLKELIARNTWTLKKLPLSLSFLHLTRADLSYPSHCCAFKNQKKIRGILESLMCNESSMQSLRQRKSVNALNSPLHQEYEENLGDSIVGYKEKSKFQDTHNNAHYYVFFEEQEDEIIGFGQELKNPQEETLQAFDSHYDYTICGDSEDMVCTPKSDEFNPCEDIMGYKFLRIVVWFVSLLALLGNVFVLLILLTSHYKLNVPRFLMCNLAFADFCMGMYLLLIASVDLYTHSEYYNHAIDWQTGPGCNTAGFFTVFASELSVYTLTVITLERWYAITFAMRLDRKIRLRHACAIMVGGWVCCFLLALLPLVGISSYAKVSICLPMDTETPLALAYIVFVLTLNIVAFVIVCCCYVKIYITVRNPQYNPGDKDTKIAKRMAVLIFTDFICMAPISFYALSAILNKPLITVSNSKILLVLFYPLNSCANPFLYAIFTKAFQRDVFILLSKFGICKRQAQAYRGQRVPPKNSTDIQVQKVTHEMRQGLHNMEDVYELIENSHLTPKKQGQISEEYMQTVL
#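 HEK 293 cells stably expressing TSHR and a modified CNG channel, with CNG-only parental cells as counterscreen, were preloaded 60 min at room temperature with membrane potential dye containing 100 uM RO 20-1724. Compound exposure was 30 min, and depolarization was read as fluorescence at 590 nm.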
# A647 fluor = A647 region autofluorescence; Compound fluorescence, A647 channel (570/671 nm), Tris buffer; 59,000 tested, under 10 active; max dye-equivalent concentration, M; active means above 1 µM dye equivalent; inconclusive means 0.1 to 1 µM; inactive means 0.1 µM or less;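 further: values scaled relative to a standard on each plate; highest value over a series up to 38 µM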
#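 Spectral profiling of library compounds in pH 8.0 Tris: 15 min room-temperature incubation, single ex/em pair (570/671 nm), response normalized to Alexa 647 equivalents.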
# Numbers without * were called inactive; i = inactive; ? = inconclusive; · = not tested or not shown; & = joins results of further samples; [ ] = dose if it differs, or a comment.
SMILES,A488 autofl,AID923,Resorufin autofl,TSHR ag,A647 fluor
CC(=O)Nc1ccc(C(=O)O)cc1,·,1.2%,·,?,·
Cc1cc(-c2ccccc2)nnc1NCCN1CCOCC1,i,-2.9%,i,0%[25.6 µM],1.1e-08&1.9e-08
CCCCCCO,·,2.0%,·,?,·
CN1CCN(C(c2ccccc2)c2ccccc2)CC1,i,-2.9%,i,-14%[25.6 µM],3.9e-08
CC(=O)c1ccc(S(=O)(=O)NC(=O)NC2CCCCC2)cc1,i,0.5%,i,?,5.4e-09&1.5e-08
CN(C(=O)CCCOc1ccc2[nH]c(=O)ccc2c1)C1CCCCC1,i,-3.6%,i,·,3.6e-08
CC[C@H](Cc1c(I)cc(I)c(N)c1I)C(=O)O,i,-2.3%[25.7 µM],i,23%[25.6 µM],7.6e-09
CC12CCC(CC1)C(C)(C)O2,·,-0.3%&0.2%,·,?,·
Oc1cc(O)c2c(c1)O[C@H](c1ccc(O)c(O)c1)[C@@H](O)[C@@H]2c1c(O)cc(O)c2c1O[C@@H](c1ccc(O)c(O)c1)[C@H](O)C2,i,3.0%[11.5 µM],i,-4%[11.4 µM],1e-09
COc1ccc(/C=C/C(=O)Nc2ccccc2C(=O)O)cc1OC,i,-5.8%,i,·,1e-09
CCN(CC)CCNC(=O)c1cc(Cl)c(N)cc1OC,i,-1.2%,i,-17%[25.6 µM],4.5e-08&3.3e-08&2.6e-09
Cc1c(NC(=O)c2cccnc2)c(=O)n(-c2ccccc2)n1C,i,1.6%,i,-13%[25.6 µM],1e-08
OCCN1CCN(CCCN2c3ccccc3Sc3ccc(Cl)cc32)CC1,i,3.2%,i,?,1.5e-08&1e-09&6.3e-08
O=C(CCNNC(=O)c1ccncc1)NCc1ccccc1,i,-2.4%,i,?,5.1e-08&3.8e-08&1.1e-08
CN(C)CCOC(C)(c1ccccc1)c1ccccn1 (configuration not stated),i,2.5%,i,·,2.6e-08
CCCCCCN,·,-2.1%,·,2%,·
C/C=C\C(=O)N(CC)c1ccccc1C,i,-3.3%[25.7 µM],i,5%[25.6 µM],1e-09
CC(=O)NC(Cc1ccccc1)C(=O)O (configuration not stated),i,0.6%,i,8%,1e-09
Cc1ccccc1OC[C@H](O)CO,i,-0.1%[25.7 µM],i,-9%[25.6 µM],1e-08
CCCN[C@@H](C)C(=O)Nc1c(C)csc1C(=O)OC,i,4.1%[25.7 µM],i,-7%[25.6 µM],1e-09

# Not a retest: 6 of the compounds above.
SMILES,A488 autofl,AID923,Resorufin autofl,TSHR ag,A647 fluor
Cc1cc(-c2ccccc2)nnc1NCCN1CCOCC1,i,-2.9%,i,0%[25.6 µM],1.1e-08&1.9e-08
CCCCCCO,·,2.0%,·,?,·
CN1CCN(C(c2ccccc2)c2ccccc2)CC1,i,-2.9%,i,-14%[25.6 µM],3.9e-08
CC(=O)c1ccc(S(=O)(=O)NC(=O)NC2CCCCC2)cc1,i,0.5%,i,?,5.4e-09&1.5e-08
CN(C(=O)CCCOc1ccc2[nH]c(=O)ccc2c1)C1CCCCC1,i,-3.6%,i,·,3.6e-08
CC[C@H](Cc1c(I)cc(I)c(N)c1I)C(=O)O,i,-2.3%[25.7 µM],i,23%[25.6 µM],7.6e-09

# Reprinted at random: 2 compounds from above
SMILES,A488 autofl,AID923,Resorufin autofl,TSHR ag,A647 fluor
Oc1cc(O)c2c(c1)O[C@H](c1ccc(O)c(O)c1)[C@@H](O)[C@@H]2c1c(O)cc(O)c2c1O[C@@H](c1ccc(O)c(O)c1)[C@H](O)C2,i,3.0%[11.5 µM],i,-4%[11.4 µM],1e-09
CC(=O)NC(Cc1ccccc1)C(=O)O (configuration not stated),i,0.6%,i,8%,1e-09

# The main list resumes with the 5 entries that preceded the break.
SMILES,A488 autofl,AID923,Resorufin autofl,TSHR ag,A647 fluor
CCCCCCN,·,-2.1%,·,2%,·
C/C=C\C(=O)N(CC)c1ccccc1C,i,-3.3%[25.7 µM],i,5%[25.6 µM],1e-09
CC(=O)NC(Cc1ccccc1)C(=O)O (configuration not stated),i,0.6%,i,8%,1e-09
Cc1ccccc1OC[C@H](O)CO,i,-0.1%[25.7 µM],i,-9%[25.6 µM],1e-08
CCCN[C@@H](C)C(=O)Nc1c(C)csc1C(=O)OC,i,4.1%[25.7 µM],i,-7%[25.6 µM],1e-09
CC(COc1ccccc1)NC(C)C(O)c1ccc(O)cc1 (configuration not stated),i,-0.7%,i,·,1.5e-08
CN(C)CCOC(=O)[C@@H](c1ccccc1)C1(O)CCCC1,i,0.4%[25.7 µM],i,-1%[25.6 µM],5.1e-09
c1ccc(CN(CC2=NCCN2)c2ccccc2)cc1,i,-2.3%,i,?,1e-09&1.9e-08&1.8e-08
COc1ccccc1N1CCN(CCCNc2cc(=O)n(C)c(=O)n2C)CC1,i,-0.9%,i,?,1e-09&9.7e-09
CCCn1cnc2c1c(=O)n(CCCCC(C)=O)c(=O)n2C,i,2.8%,i,10%,4.7e-09
CCCCCCCCCCCCCCC[C@H](O)[C@H](N)CO,i,-1.2%,i,2%,1e-09
CCC(C)n1ncn(-c2ccc(N3CCN(c4ccc(OCC5COC(Cn6cncn6)(c6ccc(Cl)cc6Cl)O5)cc4)CC3)cc2)c1=O (configuration not stated),i,·,i,·,2.9e-08
CC[N+](C)(CC)CCOC(=O)C(O)(c1ccccc1)C1CCCCC1 (configuration not stated),i,·,i,·,4.4e-09
Oc1ccc(/C=C/c2cc(O)cc(O)c2)cc1,i,1.0%&0.7%,i,-5%,1e-09
C[C@]12CCC(=O)C=C1CC[C@@H]1[C@@H]2CC[C@@]2(C)[C@H]1CC[C@]2(O)C(=O)CO,i,-1.3%,i,·,2.1e-08
O=C(NCCc1c[nH]c2ccccc12)c1cccnc1,i,-0.8%,i,-1%,2.9e-08
C[C@@H](N)C1CCC(C(=O)Nc2ccncc2)CC1 (some centres not stated),·,-2.0%,·,-5%,·
c1ccc(CC2=NCCN2)cc1,i,-0.9%,i,?,5.1e-08
O=S(=O)(c1cccc2cnccc12)N1CCCNCC1,i,-0.2%,i,7%,2.3e-09
CCOc1ccccc1C(N)=O,·,1.5%,·,-6%,·

# Compound activity: PubChem BioAssay, National Center for Advancing Translational Sciences (NCATS)

# Not all compounds are listed; count on the stated rates, not on these rows.
